Screening data (PubChem BioAssay)
Measles inh = inhibitors of measles virus growth in infected cells. infected Vero cells, GFP fluorescence, 64 h; hits give low values. z-score (no concentration beside the values). hit rate 0.1% among 33,000. AID 745;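 active = z-score under -3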;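 note: score is relative to mean and SD of the compound wells of a plate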
* marks the source's active call; other numbers are inactive results.

| Molecule | Measles inh |
| --- | --- |
| O=C(Nc1cccc([N+](=O)[O-])c1)c1ccc2c(c1)C(=O)N(c1nccs1)C2=O | -0.18 |
| CCCc1n(CC(O)COc2cccc(Cl)c2)c2ccccc2[n+]1C (centres undefined) | 0.55 |
| Cc1ccc(-c2nc(-c3ccc([N+](=O)[O-])cc3)no2)cc1Cl | -0.67 |
| Cc1cccc(Cc2c(C)nc3nc(SCC(=O)O)nn3c2C)c1 | -0.1 |
| CC1=CC(C)C(C2Nc3ccccc3C(=O)N2c2ccccc2C)CC1 (centres undefined) | 0.27 |
| COC(=O)Cn1sc2c3c(ccc2c1=O)C(=O)c1ccccc1C3=O | -0.93 |
| O=C(CC1Sc2ccccc2NC1=O)Nc1ccccc1Cl (centres undefined) | -0.47 |
| COc1ccc(C(=O)Nc2cccc(C)n2)cc1[N+](=O)[O-] | 0.59 |
| O=C(CSc1nnc(-c2cccc(Br)c2)n1-c1ccccc1)Nc1ccccc1F | 1.9 |
| CC1CN(S(=O)(=O)c2cccc(C(=O)Nc3ccccc3)c2)CC(C)O1 (centres undefined) | -0.34 |
| CC(=O)NC(CCS(C)(=O)=O)C(=O)Nc1nc2ccccc2s1 (centres undefined) | 0.77 |
| Cc1cc(NC(=O)CCn2c(=S)oc3ccccc32)ccc1Br | 0.55 |
| COc1ccc(NC(=NS(=O)(=O)c2ccc(C)cc2)c2ccccc2)cc1 | -0.22 |
| Cc1ccccc1NC(=O)c1sc2[nH]c(=O)c(C(=O)O)cc2c1N | 0.27 |
| O=C(Nc1ccccc1F)C1CCN(S(=O)(=O)c2ccc(Cl)cc2)CC1 | 0.51 |
| Cn1c2ccccc2c(=Nc2ccc(Br)cc2)c2ccccc21 | -0.53 |
| CC(C)c1cc(C(C)C)c(S(=O)(=O)N2CC3C4C=CC(C4)C3C2)c(C(C)C)c1 (centres undefined) | -0.41 |
| Cc1cc(C)c2oc(-c3ccc(C)c(N=Cc4cccc([N+](=O)[O-])c4O)c3)nc2c1 | -0.73 |
| COc1ccc(-c2cc(C(F)(F)F)n3nc(C(=O)Nc4ccc5c(c4)CCC5)cc3n2)cc1 | -0.98 |
| COc1ccc(CCNC(=O)c2cccc([N+](=O)[O-])c2C)cc1 | 0.05 |
| CCCCNC(=O)c1ccc2c(c1)N(Cc1ccccc1F)C(=O)c1ccccc1S2 | 0.3 |
| CC1CCCC(C)N1C(=O)c1ccc(Cl)c([N+](=O)[O-])c1 (centres undefined) | -0.51 |
| CCN1CCN(CCCNC(=O)c2cc3cc4ccc(OC)cc4nc3s2)CC1 | -0.27 |
| O=C(Oc1ccc2c(=O)c(Oc3ccccc3Br)c(C(F)(F)F)oc2c1)c1ccco1 | -0.02 |
| Cc1cc2c(cn1)C(Nc1ccccc1)c1ccccc1-2 (centres undefined) | -0.8 |
| O=C(NCCc1ccccc1)c1ccc2c(c1)C(=O)N(c1ccccn1)C2=O | 0.03 |
| CC1CCC2C(=O)N(c3cccc(C(=O)OCC(=O)c4cccc([N+](=O)[O-])c4)c3)C(=O)C2C1 (centres undefined) | 0.75 |
| Cc1cc(C2CC3CCC2C3)cc(C)c1O (centres undefined) | -0.46 |
| COc1ccccc1NC(=O)c1c(NC(=O)C(C)(C)C)sc2c1CCC2 | 0.21 |
| Fc1ccc2c(c1)c1c3n2CCNC3CCC1 (centres undefined) | -0.03 |
| COc1ccc(C2=NN3C(C2)c2cc(Cl)ccc2OC3c2ccncc2)cc1OC (centres undefined) | 0.08 |
| O=C(NCCC1=CCCCC1)c1cc2c(=O)n3ccccc3nc2s1 | 0.89 |
| Cc1onc(-c2ccccc2)c1C(=O)OCC(=O)c1ccccc1 | -1.1 |
| O=c1c2cn[nH]c2nc(SCc2cccc([N+](=O)[O-])c2)n1-c1ccccc1 | -0.8 |
| O=c1ccc(=O)n(C2CCS(=O)(=O)C2)[nH]1 (centres undefined) | 0.21 |
| CCCc1nc(N)c(C#N)c(-c2ccccc2)c1C | 0.54 |
| O=C(CNS(=O)(=O)c1ccc(Br)s1)N1CCN(c2ccccc2Cl)CC1 | -1 |
| COc1ccc(OC)c(C2SCCN2S(=O)(=O)c2ccc([N+](=O)[O-])cc2)c1 (centres undefined) | 1.1 |
| O=C(O)c1ccccc1Nc1ccccc1C(=O)O | 0.53 |
| COc1cccc(N/C(N)=N/c2nc(C)cc(C)n2)c1 | 0.82 |
| COc1ccc(Nc2ncc(C(=O)NCc3ccccn3)c3ccccc23)cc1 | -0.97 |
| Cc1ccc(NC(=O)c2ccc(F)c(S(=O)(=O)NC(c3ccccc3)c3ccccc3)c2)cc1F | -1.2 |
| Cc1cc2c(=O)n(CC(=O)Nc3ccccc3F)cnc2s1 | 0.18 |
| Cc1sc2c(c1C)c(=O)n(-c1ccccc1)c(=O)n2CC(=O)Nc1ccc(F)cc1 | 0.16 |
| Cc1cccc(-c2noc(-c3ccc(C)c(C)c3)n2)c1 | 0.05 |

Pulled by compound from the list above (2):
| Molecule | Measles inh |
| --- | --- |
| CC1=CC(C)C(C2Nc3ccccc3C(=O)N2c2ccccc2C)CC1 (centres undefined) | 0.27 |
| Cc1cc(C2CC3CCC2C3)cc(C)c1O (centres undefined) | -0.46 |

Returning to the listing; the 5 compounds before the break are reprinted first.
| Molecule | Measles inh |
| --- | --- |
| COc1ccc(Nc2ncc(C(=O)NCc3ccccn3)c3ccccc23)cc1 | -0.97 |
| Cc1ccc(NC(=O)c2ccc(F)c(S(=O)(=O)NC(c3ccccc3)c3ccccc3)c2)cc1F | -1.2 |
| Cc1cc2c(=O)n(CC(=O)Nc3ccccc3F)cnc2s1 | 0.18 |
| Cc1sc2c(c1C)c(=O)n(-c1ccccc1)c(=O)n2CC(=O)Nc1ccc(F)cc1 | 0.16 |
| Cc1cccc(-c2noc(-c3ccc(C)c(C)c3)n2)c1 | 0.05 |
| COC(=O)c1sc2ccccc2c1NC(=O)c1ccc(S(=O)(=O)N(C)c2ccccc2)cc1 | 0.05 |
| COc1ccc(Br)cc1CN1C(=O)CCC1(C)C(=O)NC1CCCC1 (centres undefined) | 1.5 |
| CCSc1oc(-c2cccs2)nc1S(=O)(=O)c1ccc(F)cc1 | 0 |
| COc1ccc(C2C(=O)N(CCc3ccccc3)CC(=O)N2C2CC2)cc1 (centres undefined) | -1.1 |
| CCOC(=O)c1ccc(N2C(=O)c3cccc4c(Cl)ccc(c34)C2=O)cc1 | 0.62 |
| O=[N+]([O-])c1ccc(N2CCOCC2)cc1NCCOc1ccccc1 | -0.24 |
| Cc1cc(C)cc(NC(=O)Cn2c3ccccc3c(=O)c3ccccc32)c1 | 0.93 |
| O=C1CCCC2=C1C(c1ccc(Br)cc1)c1c([nH]c(=S)[nH]c1=O)N2 (centres undefined) | 1.4 |
| O=C(NCc1n[nH]c(=S)n1Cc1ccccc1)c1cccs1 | -0.18 |
| CCCn1c(=N)n(CC(C)O)c2ccccc21 (centres undefined) | 2.5 |
| S=c1nc2ccccc2c2nc(-c3ccccc3)[nH]n12 | -1.7 |
| Cc1ccc2c(c1)C(C)CC(C)(C)N2C(=O)NC1CCCCC1 (centres undefined) | -0.41 |
| O=C(Nc1cccc(NC(=O)c2cccc(Cl)c2)c1)c1ccc(-c2ccccc2)cc1 | -1.6 |
| COc1cc2nc(N3CCNCC3)nc(N)c2cc1OC | 0.77 |
| Cc1ccc(Sc2c(C)nn(C(C)(C)C)c2OC(=O)CC(C)C)cc1 | 0.13 |

Among those listed so far, two contain a CF3 group:
| Molecule | Measles inh |
| --- | --- |
| COc1ccc(-c2cc(C(F)(F)F)n3nc(C(=O)Nc4ccc5c(c4)CCC5)cc3n2)cc1 | -0.98 |
| O=C(Oc1ccc2c(=O)c(Oc3ccccc3Br)c(C(F)(F)F)oc2c1)c1ccco1 | -0.02 |

(continued)
| Molecule | Measles inh |
| --- | --- |
| COC(=O)c1c(C)oc2ccc(N(C(=O)c3ccc([N+](=O)[O-])cc3)S(=O)(=O)c3ccc(Cl)cc3)cc12 | -0.42 |
| CC(=O)c1ccc(NC(=O)CSc2nc3ccc(N=Cc4ccc(F)cc4)cc3s2)cc1 | -0.95 |
| O=C(CSc1nc2ccccc2o1)c1ccc(-c2ccccc2)cc1 | 0.95 |
| O=C(Nc1ccc(F)cc1)C1CC(=O)N(Cc2ccccc2)C(=Nc2ccc(Cl)cc2)S1 (centres undefined) | -0.88 |
| Cc1cc(NC(=O)Cn2c(=O)n(Cc3ccco3)c(=O)c3cc(Cl)ccc32)n[nH]1 | -0.36 |
| NC(CC(=O)O)c1ccc(Cl)cc1 (centres undefined) | -0.14 |
| COC(=O)c1ccccc1NC1=CC(=NS(=O)(=O)c2ccc(C(C)C)cc2)c2ccccc2C1=O | 1.2 |
| CCCOC(=O)C1=C(C)NC2=C(C(=O)CCC2)C1c1ccc(OCc2ccccc2)c(OC)c1 (centres undefined) | 0.7 |
| Cc1ccc(C2=NN(CC(=O)NCCN3C(C)CCCC3C)C(=O)CC2)cc1 (centres undefined) | -0.9 |
| CCC(NS(=O)(=O)c1ccc(C)cc1)C(=O)N1CCc2ccccc21 (centres undefined) | 1.5 |
| CCOC(=O)Cc1c(C)c2c(C)nn(-c3ccccc3)c2oc1=O | -0.77 |
| CC(=O)Oc1ccc(N2C(=O)c3ccc(-c4nc5ccccc5c(=O)o4)cc3C2=O)cc1 | 1.5 |
| CCOc1cc2[nH]c(=S)n(CCc3ccc(C)cc3)c(=O)c2cc1OCC | 1.4 |
| O=C(CSc1nc2ccsc2c(=O)n1CC1CCC(C(=O)O)CC1)c1ccc(Br)cc1 (centres undefined) | 0.35 |
| CC(C)(C)C1CCc2c(sc(NC(=O)c3ccccc3F)c2C(=O)O)C1 (centres undefined) | -0.52 |
| Cc1cc2nc(Sc3c([N+](=O)[O-])nc(C)n3Cc3ccccc3)[nH]c2cc1C | -0.44 |
| COc1ccc(Oc2nc3c(c(=O)n(C)c(=O)n3C)n2Cc2ccccc2Br)cc1 | -0.16 |
| Cc1cc(I)cc2c1NC(c1cccc3ccccc13)C1CC=CC21 (centres undefined) | -0.43 |
| O=C(Nc1c2c(nn1-c1ccc(Cl)cc1)CS(=O)(=O)C2)c1cccs1 | 0.08 |
| O=C(O)CCC(=O)Nc1ccc(-c2cn3ccccc3n2)cc1 | 0.55 |
| CCCOC(=O)C1=C(C)NC2=C(C(=O)CC(c3cccs3)C2)C1c1coc2ccccc2c1=O (centres undefined) | -1.1 |
| CCc1ccccc1NC(=O)c1ccc(NCc2ccccc2Cl)c([N+](=O)[O-])c1 | 0.23 |
| CCOC(=O)c1cccc(N2C(=O)C3C4C=CC(CC4)C3C2=O)c1 (centres undefined) | 0.05 |
| O=C(Oc1ccccc1)c1ccc(=O)oc1 | 0.48 |
| CC1CCN(C(=O)CSc2nc(-c3ccco3)cc(C(F)(F)F)n2)CC1 | -0.57 |
| CC(=O)Nc1cc(C(=O)NCCN2CCc3ccccc3C2)ccc1Sc1ccc(Cl)cc1 | 0.44 |
| O=C(NCc1cccc(F)c1)c1c(O)c2ccccc2[nH]c1=O | 0.22 |
| CC(C)(C)c1ccc(C2Sc3ccccc3NC3=C2C(=O)c2ccccc23)cc1 (centres undefined) | 1.6 |
| CCCCN(C)C(=O)CSc1nc2ccsc2c(=O)n1Cc1ccc2c(c1)OCO2 | 1.5 |
| COC(=O)c1cc(C(=O)OC)cc(N2C(=O)CSC2c2cccc(C(F)(F)F)c2)c1 (centres undefined) | -0.58 |
| Cc1c(Br)c(=O)oc2c(Br)c(O)ccc12 | -0.26 |
| CCCCNC(=O)c1ccc2c(c1)N=C(CC)c1cc(Cl)ccc1S2 | -0.56 |
| COc1ccc2cc(S(=O)(=O)N3CCN(S(=O)(=O)c4ccc5cc(OC)ccc5c4)C(C)C3)ccc2c1 (centres undefined) | 1.4 |
| Cc1sc2nc(C(C)(C)C)oc(=O)c2c1C | 0.29 |
| O=c1cc(-c2ccccc2)c2cc3c(-c4ccc(F)cc4)coc3cc2o1 | -1.5 |
| CCCCNC(=O)c1cc(Sc2ccc(F)cc2)nc2ccccc12 | -0.49 |
| COc1ccc2nc3sc(C(=O)N4CCN(c5ccc(F)cc5)CC4)cc3cc2c1 | -0.78 |
| CCCCNC(=O)CSc1nc2ccccc2c(=O)n1Cc1cccs1 | -0.28 |
| O=[N+]([O-])c1ccc(Cl)cc1NCCOc1ccccc1 | -0.3 |
| COc1ccc(CNS(=O)(=O)c2ccc(F)c(C(=O)Nc3ccc(Cl)cc3)c2)cc1 | 0.82 |
| CC(C)CNC(=O)c1cnn2c(C(F)(F)F)cc(-c3ccc(Br)cc3)nc12 | -0.83 |
| O=C(Nc1cccnc1)c1c(O)c2ccccc2[nH]c1=O | -0.58 |
| CCc1cc2c(=O)oc(-c3ccccc3F)nc2s1 | 0.02 |
| COc1ccc(S(=O)(=O)N2CCN(S(=O)(=O)c3ccccc3[N+](=O)[O-])CC2)cc1 | -0.59 |
| CC12CC(=O)C(C)(C1)C1C(=O)N(c3ccccc3)C(=O)C12 (centres undefined) | 1.6 |
| CC(=O)Nc1c(C(=O)c2cc3ccccc3o2)oc2ccc(Br)cc12 | -0.73 |
| Cc1ccc(NS(=O)(=O)c2cc(S(=O)(=O)Nc3ccc(C)c(C)c3)c3cccc4c3c2NC4=O)cc1C | 0.19 |
| Cc1ccc(S(=O)(=O)N2CCN(C(=O)COc3ccccc3)C2c2ccccc2)cc1 (centres undefined) | 0.79 |
| O=C(Cn1c(=O)n(-c2ccccc2)c(=O)c2c3c(sc21)CCCC3)Nc1ccc(Br)cc1 | -0.51 |
| N#Cc1c(NC(=O)COc2ccccc2Br)sc2c1CCC2 | 0.01 |
| Cc1ccc(C)n1-c1cc(C(=O)O)cc(C(=O)O)c1 | 0.64 |
| Cc1nn(Cc2ccc(Cl)cc2)c(C)c1NC(=O)CCC(=O)O | -0.32 |
| CCOc1cc(C(=O)N2CC(=O)Nc3ccc(F)cc3C2c2ccc(F)cc2)cc(OCC)c1OCC (centres undefined) | 0.52 |
| O=C1CC(NCCN2CCOCC2)C(=O)N1c1ccc(Br)cc1 (centres undefined) | 0.74 |
| CCOC(=O)c1cc2c(=O)n3cccc(C)c3nc2n(CCc2ccccc2)c1=N | -1.1 |
| CCCCNC(=O)c1cccc(NS(=O)(=O)c2ccc(Cl)cc2)c1 | 0.55 |
| CCS(=O)(=O)N1CCN(c2ccc([N+](=O)[O-])c(N3CCc4ccccc4C3)c2)CC1 | 1.6 |
| CN1CCN(c2c(CN3CCCCC3)c(=O)oc3ccccc23)CC1 | 0.67 |
| CC(C)CCN1C(=O)c2ccccc2C1C(=O)NC1CCCCC1 (centres undefined) | -1.3 |
| CCOC(=O)CSc1nc2c(sc3ccccc32)c(=O)n1CCCN1CCOCC1 | 0.18 |

This is a subset. The share of hits here may be higher or lower than overall.
